HPGD inh – HPGD (human) dehydrogenase inhibition; P15428; purified HPGD, NADH fluorescence kinetic, PGE2 substrate; Potency, µM, inactives show top-dose activity change, negative = inhibition, usual class: inhibitors; 150,000 tested, 4.3% active; AID 894; active = well fitted inhibition curve with a large enough effect (not every such curve was filed as active); inconclusive = small, poorly fitted or top-dose-only effect, or another doubt; inactive = no such curve, though single readings can be large or run the other way;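 further: top concentration of the series not given in the record; plate controls included wells without enzyme; inactives centre near -10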
Target sequence (P15428 whole entry, looked up): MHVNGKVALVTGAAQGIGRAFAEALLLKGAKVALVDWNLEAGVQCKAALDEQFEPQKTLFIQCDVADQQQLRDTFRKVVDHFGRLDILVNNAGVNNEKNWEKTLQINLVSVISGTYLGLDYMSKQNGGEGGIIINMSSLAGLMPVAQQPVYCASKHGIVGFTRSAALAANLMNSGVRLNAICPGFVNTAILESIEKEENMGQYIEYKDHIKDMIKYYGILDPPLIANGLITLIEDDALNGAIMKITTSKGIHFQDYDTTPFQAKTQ
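NADH formation kinetics: reaction with 30 uM PGE2 and 1 mM NAD+ (final), 20 nM enzyme, Tris-HCl pH 8 with Tween 20, after 15 min compound preincubation at room temperature. Fluorescence change, last versus first of five reads.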
An asterisk follows results filed as active; u = inconclusive; & = joins results of further samples. On the % scale 0 is the no-effect control and ±100 the full control effect; potency means the concentration at half of the fitted maximal effect. Some of the compounds tested; the hit share may differ from the screen's.

SMILES	HPGD inh
O=C(NC1CC1)c1nc2c(nnn2Cc2ccccc2Cl)c(=O)[nH]1	16µM*
O=C(O)c1cc(O)c2c(c1)[C@H]([C@H]1c3cc(C(=O)O)cc(O)c3C(=O)c3c(O[C@@H]4OC(CO)C(O)C(O)C4O)cccc31)c1cccc(O[C@@H]3OC(CO)C(O)C(O)C3O)c1C2=O (some centres not stated)	7.9µM*
COC(=O)CN1C(=O)N(c2ccccc2)C(N(O)C(=O)Nc2ccccc2)C1(C)C (configuration not stated)	-7%
Cc1nn(-c2ccccc2)c(C)c1C(=O)OCC(=O)NC12CC3CC(CC(C3)C1)C2	-18%
COc1ccc(CNC(=O)C2CCN(S(=O)(=O)c3cc(OC)ccc3OC)CC2)cc1	-7%
CC(OC(=O)c1ccc2ncsc2c1)C(=O)Nc1ncc(Cl)cc1Cl (configuration not stated)	-9%
Cc1c(Cl)cccc1NC(=O)c1ccc(-n2ccnc2)nc1	-6%
Cc1ccc(C(=O)NCC(=O)O)cc1S(=O)(=O)N1CCCCC1	-7%
CCc1nnc(NC(=O)CSc2nc3c(c(=O)n2-c2ccccc2OC)SCC3)s1	-37%
Cc1nn(C(C)(C)C)c(OC(=O)c2ccc3c(c2)OCO3)c1S(=O)(=O)c1ccccc1	-29%
O=C(Nc1cccc(-c2nc3ccccc3s2)c1)c1cc(=O)c2ccccc2o1	u
COc1cccc(C(=O)OCCN2CCCCC2)c1	-15%
COc1ccc2c(c1)O[C@@H](c1cccc(C(F)(F)F)c1)[C@H](O)C2=O	-12%&-15%
COc1ccc(C(O)P(=O)(OC2CCCCC2)c2ccc(N(C)C)cc2)cc1OC (configuration not stated)	-14%
CCC(C)n1c(C)nc2c(c1=O)c1nc3ccccc3nc1n2CCC1=CCCCC1 (configuration not stated)	u
Cc1ccc(C(=O)N2CCN=C2SCc2ccc([N+](=O)[O-])cc2)cc1	-16%
O=C(c1c(O)c2ccccc2oc1=O)C1CCC1	u
CC1CCc2nn(CC(=O)N3CCN(C(=O)c4ccco4)CC3)cc2C1 (configuration not stated)	-19%
O=C(CSc1nnnn1-c1ccccc1)CC(=O)Nc1ccc(Cl)cc1	-31%
Cn1c(=O)c2c(nc(-n3ccnc3)n2Cc2ccccc2)n(C)c1=O	-14%
CN(C)Cc1ccccc1-c1nccc(NCc2cccs2)n1	2%
COC(=O)c1c(N)n(-c2ccc(N3CCOCC3)cc2)c2nc3ccccc3nc12	-26%
COc1ccccc1OCCCn1cc(C#N)c2ccccc21	-23%
O=C(O)CCCNC(=O)c1cccc(C(=O)NCCCC(=O)O)n1	-6%
O=C(CSc1nnc(CNC(=O)C23CC4CC(CC(C4)C2)C3)n1-c1ccccc1)Nc1ccc(F)cc1	-2%

Random excerpt: 6 records from the list
SMILES	HPGD inh
O=C(NC1CC1)c1nc2c(nnn2Cc2ccccc2Cl)c(=O)[nH]1	16µM*
COc1ccc(C(O)P(=O)(OC2CCCCC2)c2ccc(N(C)C)cc2)cc1OC (configuration not stated)	-14%
Cc1ccc(C(=O)NCC(=O)O)cc1S(=O)(=O)N1CCCCC1	-7%
O=C(CSc1nnnn1-c1ccccc1)CC(=O)Nc1ccc(Cl)cc1	-31%
O=C(O)c1cc(O)c2c(c1)[C@H]([C@H]1c3cc(C(=O)O)cc(O)c3C(=O)c3c(O[C@@H]4OC(CO)C(O)C(O)C4O)cccc31)c1cccc(O[C@@H]3OC(CO)C(O)C(O)C3O)c1C2=O (some centres not stated)	7.9µM*
COc1ccc2c(c1)O[C@@H](c1cccc(C(F)(F)F)c1)[C@H](O)C2=O	-12%&-15%

Look-ups from the entries so far.
HPGD inh result of O=C(O)c1cc(O)c2c(c1)[C@H]([C@H]1c3cc(C(=O)O)cc(O)c3C(=O)c3c(O[C@@H]4OC(CO)C(O)C(O)C4O)cccc31)c1cccc(O[C@@H]3OC(CO)C(O)C(O)C3O)c1C2=O (some centres not stated) : 7.9µM*
HPGD inh result of CN(C)Cc1ccccc1-c1nccc(NCc2cccs2)n1 : 2%
HPGD inh result of CC1CCc2nn(CC(=O)N3CCN(C(=O)c4ccco4)CC3)cc2C1 (configuration not stated) : -19%

Further results follow:
SMILES	HPGD inh
FC(F)(F)c1cc(-c2cccs2)n[nH]1	-21%
CC1CC(C)CN(CCOCCSc2ccccc2)C1 (configuration not stated)	1%
CC(/C=N/NC(=O)Cc1cccs1)=C\c1ccccc1	-4%
CC(Sc1ccc(Cl)cc1)C(=O)NCc1cccnc1 (configuration not stated)	-1%
O=C1/C(=C/c2ccc(O)cc2)SC(=S)N1Cc1cccnc1	-10%
COC(=O)C1CSC(C(=O)OC)N1C(=O)Nc1ccccc1 (configuration not stated)	-3%
Cc1cccc2sc(NC(=O)CCNS(=O)(=O)c3cccs3)nc12	4%
O=C(CC12CC3CC(CC(C3)C1)C2)NCc1ccncc1	-8%
CCCCNc1nc(N)nc(-c2cc(Cl)ccc2O)n1	u
N#CCCn1c(=O)cnc2cnc(N3CCOCC3)nc21	u
C=CCSc1nc(-c2ccc3c(c2)OCO3)cc(C(F)(F)F)c1C#N	u
CCOc1cc(/C=N\NC(=O)c2ccc(C)nc2)cc([N+](=O)[O-])c1O	-10%
COc1ccc(Cn2ccnc2)cc1Br	-21%
COc1cc(C(=O)NC2CC3CCCC(C2)N3C2CC2)cc(OC)c1OC (configuration not stated)	-4%
O=C1CC(=O)N(Cc2cccs2)C(=O)N1	-3%
COc1ccc(CNc2ncnc3cc(OC)c(OC)cc23)cc1	-12%
Cc1cc(=O)cc(C)n1-c1ccc2c(c1)nc(C)n2-c1ccccc1	-5%
CN(C)S(=O)(=O)Nc1ccc2c(c1)OCO2	u
O=C1Nc2ccc(Br)cc2/C1=N/N=C/C1=C(N2CCOCC2)C(=C\c2ccccc2)/CC1	-6%
O=C(/C=C/c1ccccc1)c1ccccc1O	0%&-8%
Cc1ccc(NC(=S)NCCSc2ccc(Cl)cc2)c(C)c1	-21%
N#CC1=C(N)OC2=C(CN(Cc3ccccc3)C/C2=C\c2cccnc2)C1c1cccnc1 (configuration not stated)	-5%
CCOC(=O)c1cnc2ccc(Cl)cc2c1N1CCN(C)CC1	-8%
CN(C)C(=S)SCC(=O)Nc1ccc(Cl)cc1Cl	u
Cc1ccc(-n2nnnc2SCC(=O)N2CC(=O)Nc3ccccc32)cc1	u

Sorted by length of the SMILES (ascending): 5 of the compounds above.
SMILES	HPGD inh
CN(C)S(=O)(=O)Nc1ccc2c(c1)OCO2	u
CCCCNc1nc(N)nc(-c2cc(Cl)ccc2O)n1	u
N#CCCn1c(=O)cnc2cnc(N3CCOCC3)nc21	u
O=C(CC12CC3CC(CC(C3)C1)C2)NCc1ccncc1	-8%
Cc1cc(=O)cc(C)n1-c1ccc2c(c1)nc(C)n2-c1ccccc1	-5%

The list continues.
SMILES	HPGD inh
Cc1cc(C)nc(N/N=C/c2ccccc2OCc2cccc(Br)c2)n1	-9%
Cn1c(COc2ccc(Cl)cc2)nnc1SCc1ncc(-c2ccccc2)o1	-5%
CCOc1ccc(/C=N/OCC(=O)NC(c2ccccc2)c2ccccc2)cc1	-25%
CCCCOc1ccc(C(C)(O)CCN2CCOCC2)cc1 (configuration not stated)	8%
CCN(CC)Cc1cc(CCNC(=O)c2ccc(Cl)cc2)ccc1O	3%
S=C(Nc1ccc2cn[nH]c2c1)Nc1ccc2cn[nH]c2c1	-3%
COc1ccc(OC(=O)CN2C(=O)C3C4CCC(C4)C3C2=O)cc1 (configuration not stated)	0%
CCOC(=O)c1cc2c(ccn2C)n1CC(=O)N1CCN(c2ccc(F)cc2)CC1	-1%
S=C(NCc1ccco1)N1CCN(Cc2ccc(Cl)cc2Cl)CC1	u
CC(=O)c1cccc(NC(=O)N2CCCC2C(=O)Nc2ccccc2C)c1 (configuration not stated)	-1%
CCOc1ccc(-c2cc(CCCC(=O)NCc3ccc(C)cc3)no2)cc1	2%
COc1ccccc1/C=N/NC(=Nc1ccc(C)cc1)c1nc2ccccc2s1	-10%
CC1=CC(C)(C)NC(=S)N1c1cccc(C)c1	-10%
O=C(NC1CCCCC1)C(c1ccc2ncccc2c1)N(Cc1ccc(F)cc1)C(=O)c1ccc2c(c1)OCCO2 (configuration not stated)	-5%
O=C(O)c1ccccc1S(=O)(=O)NCC(O)COc1ccc(Br)cc1 (configuration not stated)	-20%
O=C(CN1CCCN(Cc2ccc(F)cc2Cl)C1=O)NC1CCCCCC1	-4%
Cc1csc(=NC(=O)c2ccccc2)n1C	-20%
CC1(C)CC(=O)C2=C(C1)NC(=O)CC2C(=O)NCc1ccc(F)cc1 (configuration not stated)	-20%
CCC1Sc2ccccc2N(CC(=O)NCc2ccccc2OC)C1=O (configuration not stated)	3%
Cc1ccc(C(=O)N/C(=C\c2ccccc2)C(=O)OCc2ccccc2)cc1	-4%
Cc1ccc(N2C(=O)[C@@H]3[C@H](C2=O)C2c4ccccc4C=CN2[C@@H]3C(=O)c2ccco2)c(C)c1 (some centres not stated)	35µM*
C=CCn1c(=N)c(C(=O)NCCCOC)cc2c(=O)n3cccc(C)c3nc21	u
COC(=O)c1ccc2c(c1)N(C)CCS2	-27%
C(=N\Nc1nc(Nc2ccccc2)nc(N2CCOCC2)n1)/c1c[nH]c2ccccc12	-11%
CCN1CCC(O)([C@H](C(=O)O)c2ccccc2)CC1	1%

The list goes on:
SMILES	HPGD inh
O=C(CSc1nccn1-c1ccccc1)NCc1ccc2c(c1)OCO2	-4%
Cc1ccc(S(=O)(=O)NCCC(=O)N2CCCCC2)cc1	-10%
CC1C(=O)CCC2[C@]1(C)CCC1[C@]2(C)CC[C@@]2(C)C3CC(C)(C)CC[C@]3(C)CC[C@@]12C (some centres not stated)	-1%
Cc1cc2cc(OCC(=O)O)ccc2n1C	-5%
Nc1c(C(=O)NCCN2CCOCC2)c2nc3ccccc3nc2n1CCc1ccccc1F	u
Cc1ccc(CN(C(=O)C(F)(F)F)C(C(=O)NC2CCCCC2)c2ccco2)cc1 (configuration not stated)	-9%
Cc1ccccc1NS(=O)(=O)c1cc(C(=O)Nc2ccccc2-c2ccccc2)ccc1Cl	-11%
CCOC(=O)c1cnn(-c2c(Cc3ccccc3)c(C)nc3c(-c4ccccc4)c(C)nn23)c1N	-8%
CCOC(=O)C1CCN(S(=O)(=O)c2cccc(-c3cn4cccc(C)c4n3)c2)CC1	-10%
CCOC(=O)c1cnc(-c2ccccc2)nc1Oc1ccc(Cl)c(Cl)c1	-1%
CCN(CC)S(=O)(=O)c1ccc2oc(SCC(=O)NCc3ccccc3)nc2c1	-10%
O=C(Nc1ccc2c(c1)OCO2)C(c1ccc(Cl)cc1)N1CCN(C(=O)c2ccco2)CC1 (configuration not stated)	-5%
C=CCNCCCOc1ccc(C(C)(C)c2ccccc2)cc1	-10%
COc1ccc(CCn2c(C)cc(C(=O)CSc3nnc(N)s3)c2C)cc1	-20%
CC(C)(C)c1cc2cccnc2n1Cc1ccccc1	-7%
Cn1c(N2CCN(C(=O)C34CC5CC(CC(C5)C3)C4)CC2)nc2ccccc21	2%
Cc1cc(Oc2ccccc2)nc2ccc(O)cc12	u
CC1CCN(c2nc(CN3CCCCC3)nc3scc(-c4ccccc4)c23)CC1	-11%
OCCNC(=S)NCCc1ccccc1	0%
COc1ccc(CCNC(=O)CSCc2ccc([N+](=O)[O-])cc2)cc1	1%
COC(=O)c1ccc(CSc2nc(C(F)(F)F)c3c(c2C#N)CCC3)o1	-14%
CN(CCCNC(=O)c1cn(C)c2ccc(S(=O)(=O)N(C)C)cc2c1=O)c1ccccc1	-3%
Cc1cccc(C2=NN(c3ccccc3)[C@@H](C(=O)N3CCOC3=O)[C@@H]2c2ccc(Cl)cc2)c1	u
COC(=O)/C=C1/N/C(=N\c2nc(C)cc(C)n2)N(c2ccc(Cl)cc2)C1=O	-6%
Cc1ccccc1NC(=O)Cc1nnc(SCc2ccc(Cl)c(Cl)c2)n1C	7%

Remaining list, next part
SMILES	HPGD inh
CC(=O)c1cccc(NC(=O)C2CCCC2)c1	-10%
O=C(Nc1ccc2c(c1)OCO2)C1CCN(S(=O)(=O)c2ccc3c(c2)OCCO3)CC1	-13%
CCN1CCCC1CNC(=O)C1CCN(Cc2nc(-c3cccc(Br)c3)oc2C)CC1 (configuration not stated)	-3%
CN(C)CCNC(=O)C12CC3(C)CC(C)(CC(C)(C3)C1)C2	2%
CCCCOC(=O)C1=C(C)Nc2ncnn2C1c1cc(OC)ccc1OC (configuration not stated)	-5%
CN=c1scc(C)n1/N=C/c1ccc(O)cc1O	-5%
COC(=O)c1c(C)oc2ccc(N(C(=O)Oc3ccccc3)S(=O)(=O)c3ccccc3)cc12	-7%
Cc1ccc(NC(=O)C(=O)NCCN2CCN(C(=S)Nc3ccccc3)CC2)cc1	-9%
COc1cc(OC)c(C(C)=O)c(O)c1C	-15%
OCCNCc1cc(Br)ccc1OCc1ccccc1	-8%
COC(=O)C(NC(=O)C(CC(C)C)NC(=O)C1CCC(C)CC1)C(C)C (configuration not stated)	-1%
C=CCOC(=O)C1=C(C)NC(=O)NC1c1cn(-c2ccccc2)nc1-c1cccs1 (configuration not stated)	-5%
COc1cccc(N(CC(=O)Nc2ccc3c(c2)OCO3)S(=O)(=O)c2ccccc2)c1	-5%
COc1ccc(CC(=O)Nc2nnc(C)s2)cc1	-1%
CC1(C)C(=O)C(c2ccccc2)=C2CN3C(=O)N(CCc4ccccc4)C(=O)C3(Cc3ccc(F)cc3)C=C21 (configuration not stated)	-13%
O=C(COC(=O)C12CC3CC(CC(C3)C1)C2)Nc1ncc(Cl)cc1Cl	-10%
CCN(/N=C/c1cccs1)c1cc(=O)n(C)c(=O)[nH]1	-11%

Assay outcomes as filed in PubChem.
